Resorufin autofl = resorufin region autofluorescence | Compound fluorescence, resorufin region 547/598 nm, buffer; stronger effect = higher value | max dye-equivalent concentration, M | hit rate 0.04% among 59,000 | AID 588; active = above 10 nM dye equivalent; inconclusive = 1 to 10 nM; inactive = 1 nM or less; a few of its hits are not listed in these tables; also: highest value over a series up to 38 µM
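Compounds in 100 mM Tris, pH 8.0, incubated 15 min at room temperature, then fluorescence read at 547 nm excitation/598 nm emission. Signal converted to dye-equivalent concentration via an on-plate six-point resorufin standard curve, per compound concentration.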
TSHR agonist = TSH receptor (human) agonism. P16473. HEK293-CNG-TSHR cells (CNG channel as cAMP sensor), membrane potential dye, cAMP. Potency, µM (series often up to 57.1 µM), for the others: at the highest dose activation, usual class: activators. hit rate 0.48% among 73,000; active = well fitted activation curve of enough size with the parental cells flat; inconclusive = any curve in the parental cells; inactive = parental cells flat and receptor cells flat or falling; also: potency is read from the fitted curve at half-maximal effect; % of control where 0% means no effect; weak receptor curves with flat parental cells got no call and are not listed
Target sequence (P16473 whole entry, looked up): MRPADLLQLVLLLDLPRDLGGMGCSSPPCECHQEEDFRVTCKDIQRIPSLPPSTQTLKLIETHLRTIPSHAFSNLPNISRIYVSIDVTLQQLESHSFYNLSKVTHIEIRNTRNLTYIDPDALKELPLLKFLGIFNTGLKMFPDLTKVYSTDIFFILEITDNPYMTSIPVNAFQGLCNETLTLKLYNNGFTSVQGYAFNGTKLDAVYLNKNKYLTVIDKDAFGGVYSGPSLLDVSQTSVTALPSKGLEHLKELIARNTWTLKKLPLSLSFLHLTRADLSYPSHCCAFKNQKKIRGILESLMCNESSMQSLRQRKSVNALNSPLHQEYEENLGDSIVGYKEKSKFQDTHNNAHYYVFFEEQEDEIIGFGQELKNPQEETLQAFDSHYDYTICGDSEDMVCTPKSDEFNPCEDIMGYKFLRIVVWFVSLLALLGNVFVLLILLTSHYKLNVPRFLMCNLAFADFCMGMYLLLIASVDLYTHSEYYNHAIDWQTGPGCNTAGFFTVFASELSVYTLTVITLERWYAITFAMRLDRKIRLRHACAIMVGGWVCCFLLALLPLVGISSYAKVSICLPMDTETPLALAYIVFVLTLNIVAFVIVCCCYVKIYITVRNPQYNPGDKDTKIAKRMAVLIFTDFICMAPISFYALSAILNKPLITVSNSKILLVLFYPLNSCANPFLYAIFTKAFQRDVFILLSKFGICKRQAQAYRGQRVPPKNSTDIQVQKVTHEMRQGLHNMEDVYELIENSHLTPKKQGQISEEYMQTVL
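cAMP rise detected as CNG-channel membrane depolarization by fluorescent dye (emission 590 nm), 30 min after compound, following 60 min dye loading containing 100 uM RO 20-1724 at room temperature. Cells: TSHR/CNG HEK 293, with parental CNG HEK 293 as control.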
A647 fluor = compound autofluorescence in A647 spectral region; Compound fluorescence, A647 channel (570/671 nm), Tris buffer; max dye-equivalent concentration, M; 59,000 tested, under 10 active; AID 592; active means above 1 µM dye equivalent; inconclusive means 0.1 to 1 µM; inactive means 0.1 µM or less;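 also: values scaled relative to a standard on each plate; highest value over a series up to 38 µM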
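Tris 100 mM pH 8.0; cpd + A647 stds pin-transferred; 15 min RT; CCD imager, ex 570/em 671. Output = A647-equivalent conc. per cpd conc.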
A488 autofl = A488 region autofluorescence; max dye equivalency, M; compound autofluorescence, A488 spectral region, dye equivalency; stronger effect = higher value; hit rate 0.1% among 59,000; active = above 10 nM dye equivalent; inconclusive = 1 to 10 nM; inactive = 1 nM or less; about half of its hits are not listed in these tables;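 also: highest value over a series up to 38 µM; compound alone in buffer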
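Compounds pin-transferred into 100 mM Tris buffer, pH 8.0, incubated 15 min at room temperature, then imaged with 480 nm excitation/540 nm emission filters. Fluorescence converted to Alexa 488 dye-equivalent concentration via an on-plate six-point A488 standard curve.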
AID923 = qHTS Assay for Allosteric/Competitive Inhibitors of Caspase-1: Spectroscopic Profiling in AFC Spectral Region; compound fluorescence, AFC spectral region (405/520 nm); almost no hit is shown here; Potency, µM (doses to about 57.5 µM), for the others: top-dose fluorescence increase, actives largely listed as activators; hit rate 1.1% among 75,000; AID 923, 2007; active = well fitted activation curve with a large enough effect; inconclusive = small, poorly fitted or top-dose-only effect;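 also: potency is read from the fitted curve at half-maximal effect; 0% is about no effect; scaled to a free AFC standard on each plate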
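Titrations up to 57 uM read every 20 sec for 3 min (405/520 nm) with 50 nM caspase 1 and 5 uM Ac-WEHD-AFC, pH 7.5 HEPES buffer. Fluorescence-vs-time intercept gave baseline, scaled against on-plate AFC standard.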
* marks the source's active call; other numbers are inactive results; i = inactive; ? = inconclusive; nt = no result given; & = joins results of further samples; [ ] = dose if it differs, or a comment. Not all compounds are listed; rates above refer to the full screens.

A first look, 2 compounds:
SMILES	Resorufin autofl	TSHR agonist	A647 fluor	A488 autofl	AID923
COC(=O)c1ccc(COC(=O)c2c(C)nn(Cc3ccccc3Cl)c2Cl)o1	i	?	1e-09	i	2.3%
COC(=O)Cc1ccc(NC(=O)c2cccs2)cc1	i	7.5%	3.1e-09	i	-2.6%

The listing, from the start:
SMILES	Resorufin autofl	TSHR agonist	A647 fluor	A488 autofl	AID923
COC(=O)c1ccc(COC(=O)c2c(C)nn(Cc3ccccc3Cl)c2Cl)o1	i	?	1e-09	i	2.3%
COC(=O)Cc1ccc(NC(=O)c2cccs2)cc1	i	7.5%	3.1e-09	i	-2.6%
Cc1ccc(CNC(=O)C2CCCN(S(=O)(=O)c3cnc[nH]3)C2)cc1 (configuration not stated)	nt	5.7%	nt	nt	-1.2%
c1ccc(SCc2nc(-c3ccccn3)no2)cc1	i	3.9%	4.33e-08	i	-0.8%
Cc1ccc(-c2sc(C)nc2CC(=O)O)cc1	i	3.6%	2.2e-09	i	-0.4%
O=c1nc2n(c3ccccc13)Cc1ccccc1-2	i	1.7%	1e-08	i	1.6%
COc1ccc(NC(=O)c2cnc(C)cn2)c2ncccc12	i	0.2%	1e-09	i	2.0%
CCOC(=O)c1cc(C(C)=O)c(=O)n(C)c1N	i	0.3%	3.94e-08	i	-0.8%
Cc1cccc(-c2nc(CN3CCCC(C(=O)NC4CCCCC4)C3)c(C)o2)c1 (configuration not stated)	i	2.1%[11.4 µM]	1e-09	i	-0.8%
CSC1=N/C(=C\c2ccc(C)o2)C(=O)S1	nt	0.6%	nt	nt	0.6%
Cc1ccc(N2CC(c3nc4ccccc4[nH]3)CC2=O)c(C)c1 (configuration not stated)	nt	-1.3%	nt	nt	-0.3%
CCCn1c(SCC#N)nc2c(c1=O)C1(CCCC1)Cc1ccccc1-2	i	nt	1.6e-09	i	nt
O=C(Nc1nccs1)c1ccc(CSc2nnnn2-c2ccccc2)cc1	i	16.6%	2.9e-09	i	3.2%
O=c1oc2ccccc2cc1NCc1ccccc1O	nt	18.5%	nt	nt	1.3%
COc1ccccc1NC(=O)CSc1ccc2nnc(-c3cccnc3)n2n1	nt	-7.4%	nt	nt	5.9%
COc1ccccc1CCn1c(=O)c(-c2cccc(Cl)c2)nc2cncnc21	i	?	1e-09	i	4.3%
CCC(CC)C(=O)Nc1ccccc1NC(C)=O	nt	?	nt	nt	3.0%
CCN(CC)S(=O)(=O)c1cccc2c(N(C)C)cccc12	i	nt	3.21e-08	i	nt
CS(=O)(=O)Nc1cccc(-c2ccc3ncnc(NCCN4CCOCC4)c3c2)c1	i	2.3%	1e-09	i	1.5%
Cc1cc(=S)cc(C)n1CCCO	i	-2.6%	9.8e-09	i	1.1%
Cc1cc(C(=O)CN2C(=O)NC3(CCCc4ccccc43)C2=O)c(C)n1Cc1cccs1 (configuration not stated)	i	-2.5%	1.2e-09	i	0.2%
O=S(=O)(Cc1nc2ccccc2s1)c1ccccc1	i	5.7%	2.8e-08	i	0.1%
CC(=O)N1CCc2cc(S(=O)(=O)NCCC3=CCCCC3)ccc21	i	?	1.32e-08	i	-0.4%
O=C(Cc1ccc(Br)cc1)N1CCCCCC1	i	14.0%	1e-09	i	-2.3%
O=c1[nH]nc(CSCc2ccccc2Cl)[nH]1	i	?	1e-09	i	1.9%
Cc1cc(C)nc(N2CCC(C(=O)Nc3ccc4c(c3)OCO4)CC2)n1	i	4.6%	1e-09	i	-0.1%
c1ccc(-c2nnc(CN3CCC4(CC3)OCCO4)o2)cc1	i	0.8%	1e-09	i	-0.5%
Cc1ccc(F)c(NC(=O)C2CCCCC2C(=O)O)c1 (configuration not stated)	nt	-11.7%	nt	nt	-3.0%
CC(CN(C)C)NC(=O)c1ccc(Cc2nc3ccccc3[nH]2)cc1 (configuration not stated)	nt	1.8%	nt	nt	-0.5%
COc1ccc(C(=O)Nc2nnc(Cc3cccs3)s2)cc1OC	i	5.9%[11.4 µM]	1e-09	i	3.1%
CC1(C)[C@@H]2CC[C@]1(CC(=O)O)[C@H](Cl)C2	i	5.7%[11.4 µM]	1.59e-08	i	-3.0%[11.5 µM]
CCCC(=O)NC(Nc1ccc(S(=O)(=O)Nc2cc(C)on2)cc1)(C(=O)OCC)C(F)(F)F (configuration not stated)	i	2.7%	1.91e-08	i	-1.8%
Cc1cc(C(=O)NCC2CCCO2)n(-c2ccccc2)n1 (configuration not stated)	nt	-0.4%	nt	nt	3.4%
CC1CCc2c(C(=O)N3CCN(S(=O)(=O)c4cccs4)CC3)csc2C1 (configuration not stated)	i	-2.7%[11.4 µM]	1.5e-09	i	-1.3%
C[C@@H](c1ccccc1)N1C(=O)[C@H]2[C@@H]3[C@H](O)[C@H](O)CC(=O)[C@H]3CC[C@H]2C1=O	nt	-3.2%&-7.9%[11.4 µM]	nt	nt	7.6%&0.4%[11.5 µM]
CC(OC(=O)CN(C)S(=O)(=O)c1ccc(Cl)cc1)C(=O)Nc1ccc(N2CCOCC2)cc1 (configuration not stated)	i	-3.7%	2.5e-09	i	-0.6%
CCOC(=O)Cn1c(=O)n(CC(=O)OCC)c2ccccc21	i	-2.4%	4.94e-08	i	0.0%
O=C(NC1CCCCC1)N1CCCCCCC1	i	3.2%[11.4 µM]	3.78e-08	i	-0.6%
COc1cc(NC(=O)c2nnn(Cc3ccc(SC)cc3)c2N)cc(OC)c1	nt	-12.0%	nt	nt	5.6%
O=C(CSc1nc(Nc2ccccc2)nc(N2CCOCC2)n1)N1CCc2ccccc21	i	nt	2.1e-09	i	1.5%
O=C(CSc1nnc(-c2cccnc2)n1Cc1ccco1)c1ccc(Br)cc1	nt	?	nt	nt	-0.1%
Cc1cc(C)n(C(=O)CNC(=O)C2COc3ccccc3O2)n1 (configuration not stated)	i	nt	7.92e-08	i	nt
COC(=O)N1[C@H](C)C=C[C@]1(Cc1ccccc1)C(=O)O	nt	0.7%	nt	nt	-3.1%
COc1ccccc1NC(=O)CN1C(=O)NC(CC(C)C)C1=O (configuration not stated)	i	0.6%	5.1e-09	i	1.3%
CCN(CC)S(=O)(=O)c1cccc(-c2nnc(SCc3ncc(-c4ccccc4)o3)n2C)c1	i	?	1.87e-08	i	-0.4%
Cc1cccn2cc(CCNC(=O)c3ccc(Br)o3)nc12	nt	?	nt	nt	0.6%
COC1(OC)N=C(N)C2(C#N)C(c3cccc(Oc4ccccc4)c3)C12C#N (configuration not stated)	i	-2.9%	2.22e-08	i	1.0%
COC(=O)c1ccc(NC(=O)CSc2n[nH]c(-c3ccncc3)n2)cc1	i	4.5%	4.26e-08	i	0.1%
COc1ccc(N(C(=O)C(C)C)S(=O)(=O)c2ccc3c(c2)n(C)c(=O)n3C)cc1	i	1.5%	4.8e-09	i	1.1%
CCCCNS(=O)(=O)c1ccc2nc(SCC(=O)Nc3sccc3C#N)[nH]c2c1	i	15.4%	1.7e-09	i	-1.3%

Next part.
SMILES	Resorufin autofl	TSHR agonist	A647 fluor	A488 autofl	AID923
COc1ccc(-c2nn(C)c(=O)c3ccccc23)cc1CNC(=O)CN1CCOCC1	i	22.1%	1.65e-08	i	0.0%
Cn1c(NC(=O)c2ccc3c(c2)OCO3)cc(=O)n(C)c1=O	nt	?	nt	nt	-2.0%
COc1ccc(-n2c3c(cc(C(=O)NC4CCSC4=O)c2=O)C(=O)CC(C)(C)C3)cc1 (configuration not stated)	nt	5.5%[11.4 µM]	nt	nt	-2.3%
COC(=O)c1ccc(NC2(C#N)C(=O)Nc3ccccc32)cc1 (configuration not stated)	i	16.8%	1.99e-08	i	0.9%
COc1cc(OC)cc(C(=O)N2CCC(N3CCCCCC3)CC2)c1	i	nt	2.03e-08	i	nt
CCC(=O)N[C@@H]1CC(C(C)(C)NC(=O)CC)CC=C1C (some centres not stated)	i	nt	7.31e-08	i	nt
O=C(C1CCN(S(=O)(=O)c2cccc3cccnc23)CC1)N1CCN(C2CCCCC2)CC1	nt	2.7%	nt	nt	-2.0%
CCOc1ccc(C(=O)NC2CCN(C(=O)NCc3ccccc3)CC2)cc1	i	-1.7%	1e-09	i	-0.8%
Cc1noc(C)c1C(=O)N1CCC[C@@]2(CCN(C(c3ccccc3)c3ccccc3)C2)C1	i	5.6%	6.1e-09	i	-1.7%
Cc1onc(-c2ccccc2)c1C(=O)Nc1ccc(S(=O)(=O)N2CCCCC2)cc1	nt	-4.8%	nt	nt	-0.6%
Cc1[nH]c2ccc(F)cc2c(=O)c1SC(F)(F)C(F)C(F)(F)F (configuration not stated)	i	nt	2.8e-09	i	nt
COc1ccc2[nH]c(C(=O)O)c(NS(=O)(=O)c3ccc(Cl)s3)c2c1	i	24.0%	1.7e-09	i	-0.7%
CC(C)OC(=O)C1C2C=CC3(CN(CC4CCCO4)C(=O)C13)O2 (configuration not stated)	i	-3.3%	4.8e-09	i	0.8%
COc1ccc(S(=O)(=O)Nc2ccccc2C(=O)NCc2ccco2)cc1	i	1.1%	6.3e-09	i	1.2%
OCC(C#CCN1CCCCC1)NCc1ccccc1 (configuration not stated)	i	2.9%	2.5e-09	i	-1.7%
O=c1cc(Nc2ccc3c(c2)OCO3)[nH]c(=O)n1-c1ccc(Br)cc1	i	0.5%	1e-09	i	1.4%
COc1ccccc1N1CCN(C(=O)Cn2nc(C(F)(F)F)c3c2CCC3)CC1	i	21.9%	4.11e-08	i	0.5%
CC(=O)N(Cc1cccs1)C1CCOC(C)(C)C1 (configuration not stated)	i	4.0%	8e-09	i	0.3%
COc1ccc(OC)c(Nc2ncnc3c2cnn3-c2cccc(C)c2)c1	i	-0.2%[11.4 µM]	1.4e-09	i	0.4%
CC(C)[C@H](NC(=O)NC1CCCc2ccccc21)C(=O)O (some centres not stated)	i	6.2%	1.69e-08	i	0.0%
Nc1nc(SCc2ccc(Cl)cc2)ns1	nt	-4.1%	nt	nt	-1.0%
Clc1ccccc1CN(Cc1ccccc1)c1ncnc2nc[nH]c12	i	nt	4.58e-08	i	nt
CCc1nnc(SCc2ccc(OC(C)C)cc2)n1N	i	-2.4%	1e-09	i	1.0%
Cc1ccc(OC[C@H](O)[C@H](C)NC(C)C)c2c1CCC2	i	?	6.6e-09	i	-2.1%&0.1%
COCCNC(=O)[C@H](C)/C=C(\c1cccnc1)C(NC(=O)OCc1ccccc1)c1ccc(C(=O)OC)cc1 (some centres not stated)	nt	4.5%	nt	nt	-0.5%
Cc1cc(C(=O)Nc2nnc(C3CCCCC3)s2)no1	i	1.7%	1e-09	i	0.8%
CCc1nc(SCC(=O)N2CCN(C(=O)c3ccco3)CC2)c2c3c(sc2n1)CCCC3	i	-2.6%	7.6e-09	i	1.1%
CCOC(=O)C(C)Oc1ccc(=O)n(-c2ccccc2)n1 (configuration not stated)	i	nt	8.4e-09	i	-2.0%
COc1ccc(CCNC(=O)CCn2cccc2)cc1OC	nt	11.1%	nt	nt	0.9%
COc1ccccc1C1/C(=C(\O)c2c(C)nc3c(C)cccn23)C(=O)C(=O)N1CCCN(C)C (configuration not stated)	i	-5.7%	1e-09	i	-0.1%
CCn1nnnc1SCC(=O)c1ccc(NC(C)=O)cc1	i	0.5%	9.8e-09	i	0.9%
Cc1cc(NC(=O)CSc2ccc3nnc(-c4cccc(F)c4)n3n2)no1	i	-0.4%[11.4 µM]	7.6e-09	i	-0.8%

Pulled by compound from the entries so far, 4 records:
SMILES	Resorufin autofl	TSHR agonist	A647 fluor	A488 autofl	AID923
COc1ccc2[nH]c(C(=O)O)c(NS(=O)(=O)c3ccc(Cl)s3)c2c1	i	24.0%	1.7e-09	i	-0.7%
Nc1nc(SCc2ccc(Cl)cc2)ns1	nt	-4.1%	nt	nt	-1.0%
CC(OC(=O)CN(C)S(=O)(=O)c1ccc(Cl)cc1)C(=O)Nc1ccc(N2CCOCC2)cc1 (configuration not stated)	i	-3.7%	2.5e-09	i	-0.6%
CCCC(=O)NC(Nc1ccc(S(=O)(=O)Nc2cc(C)on2)cc1)(C(=O)OCC)C(F)(F)F (configuration not stated)	i	2.7%	1.91e-08	i	-1.8%

Screening results: PubChem BioAssay, National Center for Advancing Translational Sciences (NCATS)
